Ecoli growth: E. coli growth inhibition, primary screen, OD600; Escherichia coli growth, 23 h; hits give low values; OD600 absorbance (test concentration not listed); hit rate 0.21% among 330,000; AID 1053175, 2014;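 active = OD600 absorbance below the run mean of sample wells minus 3.6 SD, in any replicate, cut at about 0.56 in these data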;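 note: stock transfer was 300 nL into about 60 µL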
rRNA inh HTS: reduced GFP signal of wild-type E. coli, primary screen, bacterial rRNA inhibitor project, GFP/RFP fluorescence, OD600, single point; GFP signal change (wild-type ribosome), % (concentration not given with the values); E. coli WT GFP vs humanized-ribosome RFP mutants, 24 h; hits give low values; DMSO median 0, no signal -100; hit rate 1.6% among 350,000;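 active = significant combined selectivity score with lowered wild-type GFP, culture density cut under 30%, mutant RFP and density less affected; inactive = any of these conditions unmet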; note: one replicate is shown; some compounds called inactive have numbers as strong as hits
T cruzi inh: inhibitors of intracellular T. cruzi growth, primary screen, luminescence, NIH3T3 host cells. hit rate 1.4% among 300,000. T. cruzi beta-gal in NIH3T3, 90 h. inhibition, % (no concentration beside the values);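 active = mean inhibition across valid replicates above about 55%, limit read from the data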;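 note: signal also drops with host cell toxicity which is not excluded here; 0% = plate median of DMSO wells and 100% = zero luminescence signal; higher percent means less beta-gal luminescence so fewer parasites; stock transfer was 50 nL into about 50 µL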
MLL AF4-AF9 inh: inhibitors of AF4 peptide binding to AF9, primary screen, biochemical, AlphaScreen, biotin-AF4 peptide, FLAG-AF9, single point; Protein AF-9 (Homo sapiens), P42568; inhibition, % at 10 µM; hit rate 0.47% among 350,000; AID 651704, 2012;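 active = every replicate reaching a set inhibition limit, whatever the replicate mean, cut at about 25% in these data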;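 note: 0% = plate neutral control median and 100% = total signal loss; the record names both 10 and 1 µM as test concentration; the first replicate is given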
Target sequence (P42568 whole entry, looked up): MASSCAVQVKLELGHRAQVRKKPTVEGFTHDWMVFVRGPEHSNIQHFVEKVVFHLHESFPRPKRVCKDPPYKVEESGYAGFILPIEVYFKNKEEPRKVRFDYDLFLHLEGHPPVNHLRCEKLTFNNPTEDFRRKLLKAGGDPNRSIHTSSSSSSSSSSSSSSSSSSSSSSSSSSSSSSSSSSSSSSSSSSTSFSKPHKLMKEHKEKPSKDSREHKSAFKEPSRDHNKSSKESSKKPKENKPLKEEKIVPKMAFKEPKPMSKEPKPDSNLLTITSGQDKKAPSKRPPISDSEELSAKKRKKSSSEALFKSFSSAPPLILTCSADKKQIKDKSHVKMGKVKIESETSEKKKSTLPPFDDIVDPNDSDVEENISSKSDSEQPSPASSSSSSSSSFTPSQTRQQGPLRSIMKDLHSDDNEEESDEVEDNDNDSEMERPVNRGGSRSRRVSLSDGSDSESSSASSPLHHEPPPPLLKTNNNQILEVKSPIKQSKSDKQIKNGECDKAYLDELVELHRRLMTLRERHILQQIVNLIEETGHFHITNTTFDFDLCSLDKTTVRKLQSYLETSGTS
FGF22 binding: binders of human FGF22 protein, primary screen, FGF22 synaptogenesis inhibitor project, biophysical, thermal shift, single point | Fibroblast growth factor 22 (Homo sapiens), Q9HCT0 | hit rate 1.5% among 340,000 | calls only at 9.99 µM | recombinant FGF22 thermal shift, SYPRO orange fluorescence; percent of sucrose octasulfate shift, DMSO zero;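 active = melting point raised past a set limit in the mean and every replicate; three in four hits are not shown here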
Target sequence (Q9HCT0 whole entry, looked up): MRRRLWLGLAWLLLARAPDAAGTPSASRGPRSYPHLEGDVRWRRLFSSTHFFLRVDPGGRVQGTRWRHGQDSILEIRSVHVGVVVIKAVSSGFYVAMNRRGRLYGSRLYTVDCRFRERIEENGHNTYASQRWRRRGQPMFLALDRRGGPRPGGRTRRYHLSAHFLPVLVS
Beta cell apopt: inhibitors of cytokine-induced beta cell apoptosis, primary screen, luminescence | INS-1E cytokine-induced death, ATP luminescence, 48 h; percent of positive-control rescue, neutral wells zero | protection from apoptosis, % (concentration not given with the values) | hit rate 0.8% among 300,000 | AID 435005, 2010;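 active = all replicates at 75% or more, or half of them and the mean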;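 note: 0% = cytokine-treated negative control wells and 100% = positive control rescue; higher means more ATP so stronger rescue from cytokine killing; wells of about 40 µL received 100 nL stock; the first replicate is given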
A1 inh: caspase 3/7 activation in MEF A1-2A-BIM cells, primary screen, A1 inhibitor project, cell-based, luminescence, HTS. hit rate 0.066% among 330,000. Caspase-Glo 3/7 luminescence, 3 h; percent of clofoctol response, vehicle zero. caspase activation, % (no concentration beside the values);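 active = over half of replicate activation scores above 10%, or exactly half above 10 with the replicate mean above 10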;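 note: wells of about 30 µL received 50 nL stock; many hits fall short of the cut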
UCH37 DUB inh: inhibitors of human UCH37 deubiquitinase, primary screen, biochemical, Ub-AMC cleavage, fluorescence | hit rate 0.33% among 330,000 | Ubiquitin carboxyl-terminal hydrolase isozyme L5 (Homo sapiens), Q9Y5K5 | inhibition, % (test concentration not listed) | purified proteasome/UCH37;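 active = mean of two replicates above 20%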;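 note: 0% = compound-free wells with enzyme and 100% = wells lacking proteasome; stock transfer was 100 nL into about 20 µL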
Target sequence (Q9Y5K5 whole entry, looked up): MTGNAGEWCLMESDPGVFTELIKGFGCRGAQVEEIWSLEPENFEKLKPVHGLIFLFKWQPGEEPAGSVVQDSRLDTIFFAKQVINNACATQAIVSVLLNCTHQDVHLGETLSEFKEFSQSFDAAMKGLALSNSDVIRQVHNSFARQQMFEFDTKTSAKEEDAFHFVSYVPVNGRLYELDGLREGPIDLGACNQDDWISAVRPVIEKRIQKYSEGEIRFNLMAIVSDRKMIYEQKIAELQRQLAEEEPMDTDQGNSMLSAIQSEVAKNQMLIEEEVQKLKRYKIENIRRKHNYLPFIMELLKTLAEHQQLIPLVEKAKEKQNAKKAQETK
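Assay system: Proteasome-bound UCH37. Buffer or medium: pH 7.4 Tris-HCl (50 mM) with ovalbumin, ATP-MgCl2, DTT. Incubation: 30 min preincubation with enzyme, 25 min cleavage at room temperature. Measured by: fluorescence, ex 355 nm, em 460 nm. Read-out basis: percent inhibition. Control set: wells without proteasome as full block, compound-free enzyme plus substrate as uninhibited.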
rRNA inh HTS OD600: also measured in rRNA inh HTS; calls as there; OD600 change, %; measured here: OD600 growth;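 optical density of the mix in the first replicate; 0 = DMSO median and -100 = no signal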
rRNA inh HTS RFP: further read-out of rRNA inh HTS, marked with its call; RFP signal change, %; measured here: RFP humanized mutant strains;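 first replicate; 0 = DMSO median and -100 = no signal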
* marks the source's active call; other numbers are inactive results; i = inactive; nt = not tested or not shown. An excerpt. The share of hits here may be higher or lower than overall.

SMILES	Ecoli growth	rRNA inh HTS	rRNA inh HTS OD600	rRNA inh HTS RFP	T cruzi inh	MLL AF4-AF9 inh	FGF22 binding	Beta cell apopt	A1 inh	UCH37 DUB inh
CN(C(=O)CN1C(=O)S/C(=C\c2cccc(Cl)c2)C1=O)C1CCS(=O)(=O)C1 (centres undefined)	0.712	-4.1	0.7	-2.5	-27.2	3.2	i	-3.8	-0.4	4.1
O=[N+]([O-])c1ccc(CSc2nnc(Cc3ccccc3)n2-c2ccc(F)cc2)cc1	0.676	nt	nt	nt	23.4	nt	nt	-8.1	-0.8	8.2
Cn1cnc([N+](=O)[O-])c1S(=O)(=O)Oc1ccc(Cl)cc1	0.622	nt	nt	nt	nt	-0.9	i	nt	nt	6.0
CCOC(=O)C1(Cc2cccc(Cl)c2)CCCN(C(=O)c2c(CC)noc2C)C1 (centres undefined)	0.637	1.4	3.0	-0.9	-9.4	0.9	i	-7.4	0.5	-0.2
Cc1csc2c(SCC(=O)NNS(=O)(=O)c3cccc(C(F)(F)F)c3)ncnc12	0.64	nt	nt	nt	1.1	-4.4	i	-6.2	0.8	4.3
CCCn1c2ccccc2c2cnn(CC(=O)NC3CCCCC3C)c(=O)c21 (centres undefined)	0.712	5.5	4.1	-2.3	8.2	-0.4	i	-0.6	0.1	-4.2
Cc1ccc(OCCn2c(=O)n(C)c3ccccc32)cc1	0.65	-26.0	-26.5	1.2	-6.9	-0.4	i	-2.9	0.8	3.7
CCCS(=O)(=O)N1CCN(S(=O)(=O)c2ccccc2)CC1	0.685	nt	nt	nt	-6.3	nt	nt	nt	-0.3	1.8
Clc1ccccc1-c1nnc(-c2cccnc2)o1	0.674	-14.2	-22.4	-0.7	-6.0	-2.0	i	nt	-4.0	3.8
COc1ccc(C(=O)Nc2cccc(C(=O)N/N=C/c3ccc(OC)cc3OC)c2)cc1	nt	-6.9	-2.6	2.4	-7.6	3.2	i	-2.4	0.1	nt
O=C(CCC(=O)c1ccccc1)NCCOc1ccccc1	0.715	4.0	7.9	6.0	-11.7	-0.5	i	-1.8	0.8	-0.2
O=C(CSc1cccs1)Nc1cccc2ccccc12	0.616	4.2	5.1	-3.5	-6.5	-4.6	i	-0.2	0.0	4.8
CCOC(=O)c1ccc(N/C=C/C(=O)c2ccco2)cc1	0.668	nt	nt	nt	-12.3	nt	nt	-3.4	-3.1	-15.2
O=C(Nc1cc(Cl)ccc1Cl)c1ccc(-c2ccccc2)cc1	0.73	12.1	8.4	-6.3	17.6	-4.5	i	0.9	-0.4	3.9
Cc1c(CCOC(=O)CC23CC4CC(CC(C4)C2)C3)sc[n+]1CC(=O)c1ccccc1	0.633	-57.7	-77.1	-23.2	34.9	16.3	i	26.4	-0.4	1.7
CCCCc1ccc(N2C(=O)[C@@H]3C(CC(N)=O)NC4(C(=O)Nc5ccc(F)cc54)[C@@H]3C2=O)cc1 (some centres undefined)	0.748	nt	nt	nt	1.9	nt	nt	-0.2	0.5	1.4
COc1cc(C(=O)Nc2ccc3c(c2)ncn3C(C)(C)C)cc(OC)c1OC	0.638	-1.2	-1.4	1.4	-3.0	-10.8	i	2.0	-1.5	3.1
COc1cc2c(cc1OC)C(c1ccc(C)o1)CC(=O)N2 (centres undefined)	0.688	-3.0	-3.1	-2.4	-9.2	-2.4	i	-13.0	0.4	-24.5
COc1ccc(N2C(=O)CC(Nc3ccc(N4CCOCC4)cc3)C2=O)c(OC)c1 (centres undefined)	0.75	-1.6	7.4	6.5	7.4	nt	nt	-2.3	2.2	3.0
O=c1[nH]c(NC2CCCCC2)nnc1Cc1ccccc1	0.663	nt	nt	nt	-3.8	nt	nt	2.7	-0.2	0.3

Two compounds from above, reduced to FGF22 binding and rRNA inh HTS RFP.
| structure | FGF22 binding | rRNA inh HTS RFP |
| --- | --- | --- |
| Cc1c(CCOC(=O)CC23CC4CC(CC(C4)C2)C3)sc[n+]1CC(=O)c1ccccc1 | i | -23.2 |
| COc1ccc(C(=O)Nc2cccc(C(=O)N/N=C/c3ccc(OC)cc3OC)c2)cc1 | i | 2.4 |

Remaining list, next part:
SMILES	Ecoli growth	rRNA inh HTS	rRNA inh HTS OD600	rRNA inh HTS RFP	T cruzi inh	MLL AF4-AF9 inh	FGF22 binding	Beta cell apopt	A1 inh	UCH37 DUB inh
Cc1cc2c(c(=O)o1)C(c1cccs1)C(C#N)=C(N)O2 (centres undefined)	0.651	6.6	-0.4	1.0	5.6	-1.8	i	-4.5	0.5	2.1
O=C(Cc1ccc2c(c1)OCCO2)Nc1ccc(Cl)c(S(=O)(=O)N2CCOCC2)c1	0.707	5.2	-21.6	-2.5	nt	2.2	i	nt	nt	5.7
CC(C)CNC(=O)COC(=O)c1ccc(Cl)c(S(N)(=O)=O)c1	0.752	nt	nt	nt	-5.3	nt	nt	-3.6	1.2	0.9
CCC(C)(C)NC(=O)C1CCC(CNS(=O)(=O)c2cccc3nsnc23)CC1 (centres undefined)	0.692	nt	nt	nt	-8.3	nt	nt	-4.4	-0.4	6.0
CCc1ccc(OCC(=O)N(CC)CC)cc1	0.67	12.6	10.9	-1.0	-7.9	-1.9	i	6.0	0.1	6.4
CC(=O)Oc1ccc2c(=O)c(Oc3ccccc3)c(C)oc2c1OC(C)=O	0.73	-17.4*	-8.7*	6.7*	-11.4	0.0	i	nt	0.3	-11.4
COc1ccccc1-n1c(CNC(=O)c2ccc(S(=O)(=O)N3CCOCC3)cc2)n[nH]c1=S	0.611	nt	nt	nt	0.8	nt	nt	-0.6	-0.8	-0.5
O=C(CCCSc1nc2sc3c(c2c(=O)[nH]1)CCC3)NCCO	0.758	nt	nt	nt	-17.2	nt	nt	0.7	-0.4	-4.0
COc1ccc(C(=O)OCC(=O)NC2CC2)cc1OC	0.622	1.3	6.3	-2.3	nt	-2.0	i	-1.7	0.6	0.8
COc1ccc(C(CNC(=O)CSc2ccccc2F)N2CCOCC2)cc1 (centres undefined)	0.541	-1.1	5.3	0.5	4.4	-5.0	i	1.2	0.1	1.9
NNC(=O)c1nn(-c2ccc(Cl)cc2)cc1O	0.652	-19.4*	-0.7*	7.8*	15.1	-10.8	i	74.6*	-0.7	-76.6
COc1cccc(NC(=O)CN(C)C(=O)c2cc3ccccc3cc2OC)c1	0.647	-23.0	-9.7	20.1	nt	1.2	i	-2.0	1.2	-2.2
COc1ccc(NC(=O)Cn2c(C(C)C)nc(C)cc2=O)cc1Cl	0.676	15.9	20.2	1.6	-1.7	-0.3	i	-2.0	-0.4	4.8
COc1ccc(C)cc1NC(=O)C1CCCN(S(=O)(=O)c2cccs2)C1 (centres undefined)	0.701	-0.8	-36.5	0.0	10.2	2.0	i	-2.5	-0.3	-1.0
Cc1ccc2c(C)c(C(=O)Nc3nnc(C)s3)oc2c1	0.612	nt	nt	nt	-6.0	nt	nt	-3.3	0.4	0.4
Cc1ccccc1NC(=O)C(C)OC(=O)CCC(=O)N(CC(C)C)c1c(N)n(CC(C)C)c(=O)[nH]c1=O (centres undefined)	0.604	7.7	8.2	-1.9	0.8	-0.9	i	-2.8	0.4	-0.7
Cc1cc(NC(=O)CSc2nnc(-c3ccncc3)n2Cc2ccccc2)n(-c2ccccc2)n1	0.643	7.5	-0.4	3.7	-11.8	-1.6	i	3.6	-0.5	-2.4
CC(=O)Nc1ccc(NC(=O)Cn2c(=O)n(-c3ccc(F)cc3)c(=O)c3oc4ccccc4c32)cc1	0.686	5.8	3.4	8.1	-3.6	7.6	i	1.1	-0.1	-0.2
CCOC(=O)CNC(=O)c1cc2c(=O)[nH]c3ccc(C)cc3c2s1	0.681	5.4	9.6	0.7	-3.5	-3.8	i	-4.0	0.5	-154.8
CCOC(=O)c1sc2nc(N3CCOCC3)c3c(c2c1N)CCCC3	0.758	nt	nt	nt	31.9	nt	nt	-4.0	-0.4	-121.5
Cc1ccc(C(=O)OCC(=O)NNC(=O)c2ccc([N+](=O)[O-])cc2)o1	0.635	2.4	6.9	-4.1	-4.0	-1.7	i	-0.8	-0.7	2.7
COc1cccc(-c2nnn(CC(=O)N3CCC(C)CC3)n2)c1	0.713	3.6	-5.1	-1.3	-12.6	-7.6	nt	-5.2	1.1	1.7
CC(NC(=O)COc1ccccc1)C(=O)NC1=NCCS1 (centres undefined)	0.69	10.6	10.5	-9.9	3.3	1.0	i	2.1	-0.5	1.2
CC1CC(=O)N(C)c2cc([N+](=O)[O-])ccc2N1 (centres undefined)	0.716	-0.8	1.3	2.3	-3.6	-3.1	i	-0.9	-0.1	6.8
CSc1ccc(CNc2ccc(Cl)cc2)cc1	0.676	-8.9	-4.1	1.2	36.8	1.3	i	-6.8	0.3	2.1
Cc1ccnc2c1ccc1ccccc12	0.605	16.1	13.7	6.0	-3.0	-2.3	i	nt	-1.2	0.3
Cc1ccc(-c2csc(NC(=O)C3CC=CCC3C(=O)O)c2C(=O)OC(C)C)cc1 (centres undefined)	0.677	nt	nt	nt	-6.4	nt	nt	-4.9	0.2	2.1
CCOc1ccccc1OCCCC(=O)Nc1ccc(Cl)c(S(=O)(=O)N2CCOCC2)c1	0.64	nt	nt	nt	nt	1.4	i	-4.1	-0.4	0.1
Cc1oc2c(c1C(=O)Nc1ccc(C(=O)O)cc1)CCCC2	0.656	nt	nt	nt	-3.4	nt	nt	-3.8	0.3	0.4
CCN1C(=O)N[C@@H](c2cccs2)C(C(=O)OC)=C1C	nt	-0.3	-0.1	-5.1	-8.2	-0.8	i	-3.9	0.6	1.5
COC(=O)CSc1nc2cc(C)ccc2cc1C#N	0.703	nt	nt	nt	-2.4	nt	nt	2.6	-3.2	4.8
CCC(C)(C)NC(=O)C(c1ccccc1Cl)N(C(=O)CCC(=O)Nc1cc(C)on1)c1ccc(NC(C)=O)cc1 (centres undefined)	0.734	6.1	13.8	0.7	3.9	2.6	i	-9.2	0.8	0.7
CCc1nnc(NC(=O)C2c3ccccc3Oc3ccccc32)s1	0.683	nt	nt	nt	7.3	nt	nt	-1.0	-0.6	3.8
N/C(=N\OC(=O)CCCN1C(=O)c2ccccc2C1=O)c1ccc(Br)cc1	nt	nt	nt	nt	-5.5	nt	nt	-0.6	-0.8	3.5
COc1ccccc1N1CCN(S(=O)(=O)c2cn(C)c(=O)n(C)c2=O)CC1	0.695	4.7	10.5	-4.5	-5.1	0.6	i	-1.9	-0.1	0.8
CCN(CC)S(=O)(=O)c1ccc2nc(SC)sc2c1	0.714	nt	nt	nt	4.5	nt	nt	2.0	0.8	-1.0
CN(C)S(=O)(=O)c1cccc(NC(=S)N/N=C/c2ccco2)c1	nt	11.6	0.4	-1.8	34.0	11.3	i	5.0	0.9	nt

Source: PubChem BioAssay (several laboratories)
